Screens (PubChem BioAssay)
Env fusion inh = inhibitors of HIV-1 Env-driven cell-cell fusion, primary screen, HeLa-JRFL effector, CEM21 target cells, luciferase | inhibition, % at 12.3 µM | 360,000 compounds, 1.1% hits;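 active = mean replicate inhibition score of at least 50 and every replicate individually at or above 50; inconclusive = only one of the two criteria met; inactive = mean below 50 and not all replicates reaching 50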;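 also: 0% = plate neutral controls and 100% = maraviroc near 300 nM; one replicate is shown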
PABP polyA inh = PABP poly(A) RNA binding inhibitors, primary screen, biochemical, fluorescence polarization, uHTS; inhibition, % at 35 µM; Polyadenylate-binding protein 1 (Homo sapiens), P11940; 290,000 compounds, 1% hits;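 active = 50% or more with normal probe brightness, or confirmed in later tests; inconclusive = above 50% with abnormal brightness, or retests that disagree; inactive = below 50% or failed in later tests; about a fifth of its hits are not listed in these tables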;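 also: calls also rest on retests at 20 µM and on dose response follow-up; controls were probe without protein and protein plus probe with vehicle; some compounds called inactive have numbers as strong as hits; many hits fall short of the cut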
Target sequence (P11940 whole entry, looked up): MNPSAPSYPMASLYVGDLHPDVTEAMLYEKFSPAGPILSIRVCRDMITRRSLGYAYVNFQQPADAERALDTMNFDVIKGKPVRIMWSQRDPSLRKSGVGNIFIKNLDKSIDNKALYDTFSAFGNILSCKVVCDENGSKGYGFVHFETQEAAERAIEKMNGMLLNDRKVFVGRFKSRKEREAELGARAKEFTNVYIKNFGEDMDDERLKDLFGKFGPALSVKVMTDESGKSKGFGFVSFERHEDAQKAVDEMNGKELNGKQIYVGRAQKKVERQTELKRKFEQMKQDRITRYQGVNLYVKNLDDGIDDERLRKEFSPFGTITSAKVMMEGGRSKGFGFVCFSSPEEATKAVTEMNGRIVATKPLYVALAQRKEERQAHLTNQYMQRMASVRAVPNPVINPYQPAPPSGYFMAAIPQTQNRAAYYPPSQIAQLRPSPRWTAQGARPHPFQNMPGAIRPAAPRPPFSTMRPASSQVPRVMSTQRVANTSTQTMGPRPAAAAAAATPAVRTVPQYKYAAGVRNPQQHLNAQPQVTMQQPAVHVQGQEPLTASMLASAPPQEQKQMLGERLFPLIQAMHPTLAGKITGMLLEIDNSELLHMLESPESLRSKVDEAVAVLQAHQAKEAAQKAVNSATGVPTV
CSC inhib = cancer stem cell viability inhibitors, primary screen, luminescence; 300,000 compounds, 1.1% hits; inhibition, % at 7.5 µM; cancer stem cell-like cells viability;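 active = mean at 75% or more and at least half the replicates too; inconclusive = mean and replicates disagree; tested in HMLE shEcad cells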;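 also: 0% = median of negative and 100% = median of positive control wells; the first replicate is given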
Rce1 inhib = yeast Rce1p protease inhibitors, primary screen, biochemical, fluorescence, cell-free homogeneous. 290,000 compounds, 0.27% hits. yeast membranes, quenched prenylated peptide cleavage fluorescence. CAAX prenyl protease 2 (Saccharomyces cerevisiae (strain ATCC 204508 / S288c)), Q03530. AID 2563, 2010. calls only;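 active = fall in fluorescence gain of 50% or more versus controls, with final raw signal at or below 3038400; inconclusive = same 50% fall but final raw signal above 3038400; inactive = fall in fluorescence gain under 50%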;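 also: plate controls were neutral control wells for no effect and wells lacking membranes for full effect; tested at 10 µM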
Target sequence (Q03530 whole entry, looked up): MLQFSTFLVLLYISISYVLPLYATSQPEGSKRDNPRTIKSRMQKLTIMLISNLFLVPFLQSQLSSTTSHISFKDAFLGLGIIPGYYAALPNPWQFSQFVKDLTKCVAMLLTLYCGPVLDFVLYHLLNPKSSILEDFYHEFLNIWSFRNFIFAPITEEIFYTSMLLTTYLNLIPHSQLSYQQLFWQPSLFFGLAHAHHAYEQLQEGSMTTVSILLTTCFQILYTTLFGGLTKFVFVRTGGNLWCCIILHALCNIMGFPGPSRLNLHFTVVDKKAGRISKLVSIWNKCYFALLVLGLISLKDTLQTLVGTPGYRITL
eIF4H inh = human eIF4H binding inhibitors, primary screen, translation initiation inhibitor project, biochemical, uHTS, fluorescence polarization; Eukaryotic translation initiation factor 4H (Homo sapiens), Q15056; eIF4H fluorescence polarization binding assay; inhibition, % at 35 µM; 290,000 compounds, 0.94% hits;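 active = 50% or more with normal probe brightness, or confirmed in later tests; inconclusive = above 50% with abnormal brightness, or retests that disagree; inactive = below 50% or failed in later tests; about a fifth of its hits are not listed in these tables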;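 also: calls also rest on retests at 20 µM and on dose response follow-up; 0% = protein and probe with vehicle and 100% = probe without protein; strong numbers were not always called active; many hits fall short of the cut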
UUG fidelity = modulators of yeast start codon fidelity, primary screen, whole organism, S. cerevisiae, single point, plate reader. 350,000 compounds, 0.13% hits. activity score, % at 18.7 µM. S. cerevisiae UUG-firefly luciferase reporter, luminescence/redox ratio. AID 602363, 2012;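 active = replicate mean at a twofold rise or more, about +100% in these data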;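 also: firefly luciferase made from a UUG start codon reports start codon fidelity; reporter light over untreated wells divided by growth signal over untreated wells; some hits fall short of that in this replicate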
MT1-MMP act inh = blockers of MT1-MMP proenzyme processing, primary screen, HT1080 RFP-PRO-GFP cells, GFP/RFP fluorescence; Matrix metalloproteinase-14 (Homo sapiens), P50281; GFP/RFP ratio fluorescence, overnight; percent of plate control window, DMSO zero; GFP/RFP ratio change, % at 20 µM; 360,000 compounds, 0.061% hits; AID 651647, 2012;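 active = GFP/RFP ratio change of at least 30% with cell ATP level not reduced by more than half and red fluorescence within 50% of control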; also: strong numbers were not always called active
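Read-out: GFP/RFP fluorescence ratio; Test system: RFP-PRO-GFP reporter HT1080 cells; Compound dosing: single-point 20 µM compound, 1% DMSO; Times: overnight compound exposure at 37 °C.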
eIF4H inh retest = also measured in eIF4H inh; calls as there; inhibition, %; compound at 20 µM; confirmation average;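 mean of two retest wells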
PABP polyA inh retest = second read-out of PABP polyA inh, no call of its own (marks repeat the call); inhibition, %; compound at 20 µM; confirmation repeats;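 mean of two retest wells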
MT1-MMP act inh RFP = further read-out of MT1-MMP act inh, marked with its call; RFP signal change, %; measured here: RFP expression control read;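 0 = vehicle wells; hits needed this value within 50% of zero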
Starred values were filed as active, the others as inactive; i = inactive; ? = inconclusive; . = no result given. This is a subset; rates above refer to the full screens.

SMILES	Env fusion inh	PABP polyA inh	CSC inhib	Rce1 inhib	eIF4H inh	UUG fidelity	MT1-MMP act inh	MT1-MMP act inh RFP	others
O=C(Nc1cccc2ccccc12)NC1CCCCC1	13	5	-8	i	4	-12	2	-3
COC(=O)c1cc(Cl)c(NC(=O)Cc2ccccc2)cc1OC	-10	-7	-10	i	1	-10	4	1
CC(C)Sc1nc2c(cnn2-c2ccc(Cl)cc2)c(=O)[nH]1	11	-1	0	i	-5	-25	3	1
COc1ccc(C(=O)NCc2nnc(SCC(=O)c3ccccc3)o2)cc1	-31	4	1	i	-1	-17	2	4
Cc1ccnc(N2C(=O)C3C4CC(C(Br)C4Br)C3C2=O)c1 (centres undefined)	-76	6	5	i	4	.	4	5
COc1ccc(Cc2nnc(SCC(=O)N3CCCC3)o2)cc1	5	-5	4	i	-5	.	2	8
Cc1ccc(S(=O)(=O)N2[C@@H](c3ccc(F)cc3)C(C(=O)O)=CC[C@H]2c2cccs2)cc1	-6	.	7	.	.	-10	2	8
Cn1c(N)c(C(=O)COC(=O)C2(c3ccc(F)cc3)CCCC2)c(=O)n(C)c1=O	.	11	3	i	-6	-9	2	-6
O=S(=O)(c1ccc(Cl)s1)N1CCN(c2ncccn2)CC1	.	-2	1	i	-6	-2	-6	-5
CN(c1ccc(C(=O)NCc2ccccc2)cc1)S(C)(=O)=O	.	-10	-11	i	-6	-12	2	5
Cc1ccc(-c2nn3c(C)nnc3c3ccccc23)cc1S(=O)(=O)NCc1ccco1	.	9	3	i	-1	-12	15	9
COc1ccc(CCNc2ccc(S(N)(=O)=O)cn2)cc1	-1	7	2	i	-6	-5	1	0
Cc1cccc(NS(=O)(=O)c2ccc(Cl)cc2)n1	1	3	-14	i	8	-29	3	1
O=C(NC1CC1)c1ccc2nc([C@H]3C[C@H](O)[C@@H](CO)O3)[nH]c2c1	-19	.	.	.	.	-15	-1	2
c1cc(C2CCN(Cc3nc(-c4ccc5c(c4)OCO5)no3)CC2)ccn1	-5	5	44	i	16	.	-1	-15
CCOC(=O)C1C(=O)NC(N2CCN(c3ccccc3)CC2)=NC1c1ccccc1 (centres undefined)	.	-6	-10	i	-11	4	9	5
O=C(Nc1cccc(Cl)c1)c1cc(S(=O)(=O)NCCc2ccc(Cl)cc2)ccc1F	12	-3	60	i	9	.	-5	-2
O=C(COC(=O)c1cc(S(=O)(=O)N2CCCCC2)ccc1Cl)NCc1ccco1	27	-5	-7	i	1	.	-1	0
CC1(C)CC2CC(C)(CN2c2ncnc3ccccc23)C1 (centres undefined)	.	-1	-12	i	8	-15	-2	-22
COc1ccc(C(=O)N/C(N)=N/c2nc3ccccc3o2)cc1	-42	2	-4	i	-1	-4	2	-4
CCN(CC)c1ncnc2c1ncn2Cc1c(Cl)cccc1Cl	.	-1	25	i	-13	-3	-5	-8
O=[N+]([O-])c1cccc(-c2cnc3ccccc3n2)c1	-27	2	1	i	2	-7	2	4
Cc1noc(C)c1COc1ccc(C(=O)N2CCN(S(=O)(=O)c3ccccc3)CC2)cc1	-1	.	-13	.	.	-5	0	-7
COc1ccc(C(=O)OCC(=O)NC2CCCCCC2)c(OC)c1	-6	.	.	.	.	-8	-6	-4
CS(=O)(=O)N(CC(=O)N1CCN(Cc2ccccc2)CC1)c1cccc(Cl)c1	-9	8	-3	i	-9	-11	-1	-3
Cc1nn(-c2ccccc2)c2sc(C(=O)N3CCc4ccccc4C3)cc12	20	58	.	.	-12	-6	4	0	eIF4H inh retest=-4;PABP polyA inh retest=8
CCSc1nc2ccccc2n1C(=O)/C=C/c1ccc(OC)c(OC)c1	i	-1	9	i	-8	-16	-22	-35
O=C(CC(=O)NCc1ccc(Cl)cc1)NCc1ccccc1	-28	-1	-11	i	-1	-23	1	0
Cn1c(N)c(C(=O)CSc2nn(-c3ccc(F)cc3)c(=S)s2)c(=O)n(C)c1=O	.	.	11	.	.	-3	-3	-29
Cc1cccc(C)c1NC(=O)C1CCN(C(=O)c2cccs2)CC1	16	-2	1	i	-8	-20	5	6
COC(=O)CC1COc2ccccc2N1C(=O)c1ccc(C(C)(C)C)cc1 (centres undefined)	?	-5	-3	i	1	-7	-3	-11
CC1CCN(S(=O)(=O)c2nnc(NC(=O)c3cccc(Cl)c3)s2)CC1	29	-3	22	i	-2	-3	14	-30
O=C(CSc1nnc(CNC(=O)c2c(F)cccc2F)o1)NCc1ccccc1Cl	2	-3	9	i	-13	1	0	-2
O=C(O)C1Cc2ccccc2CN1S(=O)(=O)c1ccc(Cl)cc1 (centres undefined)	18	-8	1	i	14	.	1	-1
COc1ccc(CNC(=O)C(c2cccs2)N(Cc2ccco2)C(=O)Cc2cccs2)cc1 (centres undefined)	.	-2	-10	i	26	0	-9	-7
Cc1nc(CNC(=O)c2ccccc2OC2CCN(S(C)(=O)=O)CC2)cs1	3	0	5	i	1	.	3	4
Cc1ccc(CNC(=O)CN2C(=O)COc3ccc(S(=O)(=O)N4CCC(C)CC4)cc32)o1	-4	.	-13	i	.	1	-2	1
COc1ccc(NC2(c3ccccc3)OC(=O)c3ccccc32)cc1 (centres undefined)	1	4	-11	i	2	1	-1	0
CN(C)CCN=Cc1c(O)n(Cc2ccc3c(c2)OCO3)c(=O)c2ccccc12	4	-18	-6	i	-11	.	-6	-1
Cc1c(Cl)cccc1NC(=S)Nc1ccccn1	0	8	-19	i	-3	-16	8	6
O=S(=O)(Nc1ccc(N2CCOCC2)cc1)c1ccccc1	-49	1	-2	.	-2	-5	1	1
O=C(OCC(=O)N1c2ccccc2Sc2ccccc21)c1cccnc1	26	-5	11	i	-8	.	-3	4
O=C(NC1CCCc2ccccc21)c1ccccc1 (centres undefined)	-12	-2	.	i	1	.	-1	1
CCCCCC(=O)Oc1cccc(N2C(=O)C3CCCCC3C2=O)c1 (centres undefined)	0	-3	-20	i	1	.	-2	4
CN1CC(=O)N2C(c3cccc([N+](=O)[O-])c3)c3[nH]c4ccccc4c3C[C@H]2C1=O (some centres undefined)	19	-2	10	i	-3	-13	1	1
CCOP(=O)(c1ccc(N(C)C)cc1)C(O)c1cccnc1 (centres undefined)	3	0	-9	i	-1	.	-2	1
O=C(O)CCCCCNC(=O)c1cccc(Br)c1	-35	-4	-6	i	0	-6	-1	4
O=C1C=C(N2CCN(C(=O)c3ccccc3)CC2)C2(CCCCC2)O1	.	-2	-4	i	0	4	1	3
Cc1ccc(S(=O)(=O)N(CC(=O)NC2CCCCCC2)c2ccccc2F)cc1	39	-8	-13	i	-1	-14	-1	-3
CC(=O)N=c1c(C#N)cc2c(=O)n3ccccc3nc2n1Cc1ccccc1	.	1	-24	i	26	-15	-5	1
CCN1CCN(c2ccc(S(=O)(=O)N3CCCCC3)cc2NC(=O)Cc2c(Cl)cccc2Cl)CC1	-15	-2	15	i	-1	0	1	0
Cc1cccn2c(=O)c3cc(C(=O)NC4CCCC4)sc3nc12	-24	0	0	i	4	-2	3	1
CCc1ccc(C(=O)C[n+]2cccc3cc(OC)ccc32)cc1	5	8	13	i	0	3	-23	-6
COc1ccc(-c2nc3ccc(C)cn3c2Cc2ccccc2)cc1OC	-7	.	.	.	.	1	-3	-2
COc1ccc(CC(=O)Nc2ccc(/C(C)=N/NC(=O)c3ccc(OC)cc3OC)cc2)cc1	-3	-2	-2	i	-2	-9	2	4
CCOc1ccc(NC(=O)CSc2nccn(-c3ccc4c(c3)OCCO4)c2=O)cc1	-9	.	-13	i	.	.	1	0
COc1ccc(N2CCN(c3cc(C)nc4ccc(OC)cc34)CC2)cc1	14	-2	.	i	1	4	-5	-8
CN(C)C(=O)c1ccc(NC(=O)c2ccccc2-c2ccccc2)cc1	6	-7	-6	i	-11	-17	0	2
c1cc2c(c(CC3CO3)c1CC1CO1)OCCOCCOCCOCCO2 (centres undefined)	-7	.	.	.	.	-1	-3	4
O=C(c1cc(-c2cccc(O)c2)on1)N1CCc2ccccc2C1	7	-8	-5	i	-4	-23	2	7
(continued)
SMILES	Env fusion inh	PABP polyA inh	CSC inhib	Rce1 inhib	eIF4H inh	UUG fidelity	MT1-MMP act inh	MT1-MMP act inh RFP	others
CCCNC(=O)Nc1ccsc1C(=O)OC	-5	-11	-22	i	-5	.	1	0
O=C(Nc1ccc2c(c1)OCCO2)c1ccc(Br)s1	.	9	25	i	-2	-40	3	-4
CCOC(=O)c1c(-c2ccco2)csc1NC(=O)COC(=O)c1cnc(C)cn1	1	.	.	i	.	-18	-3	-3
OC(CNCc1ccc(F)cc1)(c1ccc(F)cc1)c1ccc(F)cc1	-33	-4	0	i	-8	-2	-2	2
Cc1cc(C(=O)NNS(=O)(=O)c2cc(C(=O)O)ccc2Cl)c(C)n1-c1ccccc1	.	.	-7	.	.	-5	-4	2
CC1(C)C(=O)Nc2ccccc2N1C(=O)COC(=O)c1cc(Cl)cc(Cl)c1	.	.	7	.	.	-34	-8	-2

Quoted from the listing (10 entries):
SMILES	Env fusion inh	PABP polyA inh	CSC inhib	Rce1 inhib	eIF4H inh	UUG fidelity	MT1-MMP act inh	MT1-MMP act inh RFP	others
COc1ccc(-c2nc3ccc(C)cn3c2Cc2ccccc2)cc1OC	-7	.	.	.	.	1	-3	-2
COc1ccc(CC(=O)Nc2ccc(/C(C)=N/NC(=O)c3ccc(OC)cc3OC)cc2)cc1	-3	-2	-2	i	-2	-9	2	4
CCOc1ccc(NC(=O)CSc2nccn(-c3ccc4c(c3)OCCO4)c2=O)cc1	-9	.	-13	i	.	.	1	0
COc1ccc(N2CCN(c3cc(C)nc4ccc(OC)cc34)CC2)cc1	14	-2	.	i	1	4	-5	-8
CN(C)C(=O)c1ccc(NC(=O)c2ccccc2-c2ccccc2)cc1	6	-7	-6	i	-11	-17	0	2
c1cc2c(c(CC3CO3)c1CC1CO1)OCCOCCOCCOCCO2 (centres undefined)	-7	.	.	.	.	-1	-3	4
O=C(c1cc(-c2cccc(O)c2)on1)N1CCc2ccccc2C1	7	-8	-5	i	-4	-23	2	7
CCCNC(=O)Nc1ccsc1C(=O)OC	-5	-11	-22	i	-5	.	1	0
O=C(Nc1ccc2c(c1)OCCO2)c1ccc(Br)s1	.	9	25	i	-2	-40	3	-4
CCOC(=O)c1c(-c2ccco2)csc1NC(=O)COC(=O)c1cnc(C)cn1	1	.	.	i	.	-18	-3	-3
